Screens as filed in PubChem BioAssay.
Beta apoptosis: blocks beta cell apoptosis. hit rate 0.8% among 300,000. AID 435005. INS-1E cytokine-induced death, ATP luminescence, 48 h; percent of positive-control rescue, neutral wells zero. protection from apoptosis, % (concentration not given with the values);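 active = all replicates at 75% or more, or half of them and the mean; inconclusive = half reach 75% but not the mean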;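 note: 0% = cytokine-treated negative control wells and 100% = positive control rescue; higher means more ATP so stronger rescue from cytokine killing; wells of about 40 µL received 100 nL stock; the first replicate is given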
Vif TR-FRET: HIV-1 Vif–A3G interaction blockers – biochemical, TR-FRET, GST-Vif 1-94, biotin-A3G peptide, dose response retest, primary screen (AID 1117319). TR-FRET GST-Vif / biotin-A3G peptide binding; higher % means a stronger effect; test concentration not given here; strong numbers were not always called active. inhibition, %; hits with a dose series show IC50 in µM. hit rate 0.57% among 260,000;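 active = above the screen mean plus three standard deviations and confirmed in dose response; inconclusive = results disagree or hit not tested in dose response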;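 note: Vif residues 1-94 fused to GST binding biotinylated APOBEC3G peptide 110-148; 0% = full assay without inhibitor and 100% = GST in place of GST-Vif; retest series ran down from 100 µM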
LANA-H2B inh: blocks KSHV LANA binding to histone H2A/H2B. cell-free LANA-H2A/H2B peptide, fluorescence polarization. inhibition, % (test concentration not listed). hit rate 0.6% among 320,000. AID 2629; in the data active = inhibition mostly above about 10%, no sharp cut-off; inactive = mostly below about 6.7%;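 note: stock transfer was 7.5 nL into about 10 µL; 0% = median of vehicle wells and 100% = median of positive control wells; one replicate is shown; the record names a cut of 25% in any replicate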
A1 inh: inhibitors of the anti-apoptotic protein A1, read as caspase activation | caspase activation, % (no concentration beside the values) | hit rate 0.066% among 330,000 | AID 2462 | MEF A1-2A-BIM cells, Caspase-Glo 3/7 luminescence, 3 h; percent of clofoctol response, vehicle zero;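 active = over half of replicate activation scores above 10%, or exactly half above 10 with the replicate mean above 10; inconclusive = replicate mean below 10 yet half the replicates above 10; inactive = over half of replicates below 10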;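 note: wells of about 30 µL received 50 nL stock; many hits fall short of the cut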
Calb FLC: affects C. albicans growth with fluconazole | growth inhibition, % (no concentration beside the values) | hit rate 0.57% among 300,000 | C. albicans CaCi-2 (fluconazole-resistant clinical isolate) + fluconazole, Alamar Blue growth, 48 h;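 active = most replicates above 75%; inconclusive = exactly half above 75%; inactive = most below 75%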;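 note: all wells also contain fluconazole at 8 µg/ml as a sub-toxic cotreatment; 0% = median of DMSO wells and 100% = median of geldanamycin control wells; wells of about 8 µL received 7.5 nL stock; the first replicate is given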
T cruzi inh: T. cruzi replication inhibition | T. cruzi beta-gal in NIH3T3, luminescence, 90 h | inhibition, % (no concentration beside the values) | hit rate 1.4% among 300,000;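 active = mean inhibition across valid replicates above about 55%, limit read from the data; inconclusive = mean below that limit but half or more replicates reach it; inactive = mean below it, under half of replicates reach it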;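 note: signal also drops with host cell toxicity which is not excluded here; 0% = plate median of DMSO wells and 100% = zero luminescence signal; higher percent means less beta-gal luminescence so fewer parasites; stock transfer was 50 nL into about 50 µL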
RanGTP-Impb inh: disruptors of Ran-importin-beta complex formation – biochemical, FRET, CFP-Ran, YFP-importin-beta, homogeneous, primary screen; cell-free CFP-Ran/YFP-importin-beta FRET ratio; inhibition, % (concentration not given with the values); hit rate 1.1% among 300,000;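 active = most replicates above 15%; inconclusive = exactly half above 15%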;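 note: 0% = DMSO wells and 100% = Ran loaded with GDP instead of GTP; wells of about 40 µL received 100 nL stock; the first replicate is given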
AF4-AF9 inh: blocks AF4 peptide binding to human AF9; P42568; AlphaScreen, biotin-AF4 peptide binding to FLAG-AF9; inhibition, % at 10 µM; hit rate 0.47% among 350,000; AID 651704;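 active = every replicate reaching a set inhibition limit, whatever the replicate mean, cut at about 25% in these data; inconclusive = mean inhibition reaches that limit but some replicates miss it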;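 note: 0% = plate neutral control median and 100% = total signal loss; the record names both 10 and 1 µM as test concentration; the first replicate is given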
Target sequence (P42568 whole entry, looked up): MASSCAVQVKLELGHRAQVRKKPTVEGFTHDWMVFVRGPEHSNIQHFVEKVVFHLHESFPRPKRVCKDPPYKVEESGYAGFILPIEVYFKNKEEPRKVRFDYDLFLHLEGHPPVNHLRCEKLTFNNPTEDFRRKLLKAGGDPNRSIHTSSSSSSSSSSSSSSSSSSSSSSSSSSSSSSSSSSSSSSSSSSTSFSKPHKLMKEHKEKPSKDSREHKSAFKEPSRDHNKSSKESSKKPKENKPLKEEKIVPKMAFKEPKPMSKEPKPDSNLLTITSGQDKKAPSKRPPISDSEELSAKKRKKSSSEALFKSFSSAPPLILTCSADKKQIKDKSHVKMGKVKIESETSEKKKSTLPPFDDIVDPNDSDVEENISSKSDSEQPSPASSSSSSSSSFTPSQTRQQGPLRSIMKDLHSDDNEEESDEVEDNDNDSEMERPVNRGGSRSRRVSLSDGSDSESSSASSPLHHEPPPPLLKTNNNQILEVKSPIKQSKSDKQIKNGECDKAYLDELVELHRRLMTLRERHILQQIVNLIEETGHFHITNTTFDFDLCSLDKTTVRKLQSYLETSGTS
An asterisk follows results filed as active; u = inconclusive; x = not tested or not shown; & = joins results of further samples. An excerpt. The share of hits here may be higher or lower than overall.

SMILES	Beta apoptosis	Vif TR-FRET	LANA-H2B inh	A1 inh	Calb FLC	T cruzi inh	RanGTP-Impb inh	AF4-AF9 inh
CC(C)(C)N(NC(=O)c1ccccc1)C(=O)c1ccccc1	-4.9	4.1%	-11.7	-0.5	3.2	-2.5	7.6	x
Cc1ccc(NC(=O)c2cc(-c3ccccc3)n(CCCN3CCOCC3)c2C)cc1	1.6	20.2%	1.6	0.8	-0.4	16.9	5.3	x
COCCN1C(=O)NC(=O)/C(=C\c2ccc(F)cc2)C1=O	-2.4	u	-0.4	0.4	4.4	-16.1	0.5	-3.2
COc1cc2c3cc1Oc1cc(ccc1O)C[C@@H]1c4c(cc(OC)c(O)c4Oc4cccc(c4)C[C@@H]3N(C)CC2)CC[N+]1(C)C	-0.8	x	-1.5	0.1	x	x	x	1.2
CC(=O)Nc1ccc(N=Cc2c(O)n(Cc3ccco3)c(=O)[nH]c2=O)cc1	-2.7	11.6%	4.7	0.7	-2.8	-6.0	-0.8	-1.5
O=C(N/N=C/c1c(O)n(-c2ccccc2)c(=O)[nH]c1=O)c1ccncc1	x	x	3.8	0.7	-5.9	-9.7	9.4	x
O=C1/C(=C\c2ccc([N+](=O)[O-])cc2)N2CCC1CC2	2.1	18.1%	2.2	0.8	-6.1	-12.0	6.6	4.0
CC(=O)N1N=C2C3CCN(CC3)C2C1c1ccc(F)cc1 (centres undefined)	-2.5	-2.8%	0.8	0.3	-3.6	-15.5	u	-3.9
Cc1ccccc1CCNCc1cc2cccc(C)c2[nH]c1=O	1.4	x	4.6	0.9	0.2	42.8	u	2.5
O=C1CCCN1c1ccc(S(=O)(=O)O)cc1 (tested in a mixture with another compound)	-1.0	-2.8%	0.7	0.5	-5.2	0.6	0.4	-12.2
Cc1c2cnn(CC(=O)N3CCC4(CC3)OCCO4)c(=O)c2c(C)n1Cc1ccc(F)cc1	0.0	-3.2%	2.4	-0.2	-2.2	-4.4	-2.1	x
O=C(O)c1ccccc1N=Nc1c(O)[nH]c(=O)[nH]c1=O	1.2	-1.6%	3.4	-0.3	10.6	7.7	-0.1	-5.0
Cc1ccc(Cn2nc(C(=O)Nc3ccc(Br)cc3)cc2C)cc1	x	2.6%	-0.9	-1.8	28.1	3.6	1.4	-1.4
CC1(C)CC(n2[nH]c(=O)c3c2NC(=O)CSC3c2ccccc2)CCO1 (centres undefined)	-1.3	25.6%	-1.0	0.1	10.8	5.7	-1.9	x
COc1cc(C(CN)CC(=O)O)ccc1O (centres undefined)	-14.2	6.8%	3.0	-0.2	-6.9	20.4	-1.4	4.6
Cc1ccc(S(=O)(=O)N2CCCC(C(=O)N3CCC4(CC3)OCCO4)C2)cc1 (centres undefined)	2.2	-1.2%	-1.5	0.2	-2.6	6.1	-4.6	x
C1=C(c2c[nH]c3ccccc23)CCN(Cc2ccccc2)C1	0.3	x	-1.6	0.4	-10.1	53.6	-0.3	5.8
NC(N)=N/N=C/c1ccc(N2CCOCC2)cc1	-1.3	6.4%	-5.3	0.8	8.4	28.0	0.8	4.9
CCOc1ccc(-n2c(CC)nc3ccccc3c2=O)cc1	x	-1.7%	-0.2	0.0	2.2	2.8	4.9	7.6
CN(C)c1ccc(/C=C2\CC3C4CC=C5CC(O)CCC5(C)C4CCC3(C)C2=O)cc1 (centres undefined)	8.1	10.8%	-4.6	-0.1	-9.8	-7.1	5.9	x
CN1CCCN(C(=O)COc2ccc(F)cc2Cl)CC1	x	0.4%	0.8	-0.2	-6.0	3.0	u	0.6
COc1ccc(Oc2cc(NC(=O)c3nn(C)cc3[N+](=O)[O-])cc([N+](=O)[O-])c2)cc1	1.8	3.0%	-2.5	13.5*	7.2	-0.7	-2.2	9.2
Cc1ccccc1CN1CCN(c2ccc(Cl)cc2)CC1	1.6	2.3%	2.8	-0.3	-26.3	-1.3	1.8	0.9
COc1cccc(CN2CCN(Cc3cccc(F)c3)CC2)c1	x	x	-2.2	0.5	-8.2	36.0	6.3	-19.3
Cc1cc(OCC(=O)NCc2cccnc2)c2c3c(c(=O)oc2c1)CCCC3	x	x	0.9	-0.4	-3.9	9.0	-0.4	0.5
Remaining list, next part.
SMILES	Beta apoptosis	Vif TR-FRET	LANA-H2B inh	A1 inh	Calb FLC	T cruzi inh	RanGTP-Impb inh	AF4-AF9 inh
CCN(CC)C(=O)c1ccc(NC(=O)c2ccc(-c3nn(C)c(=O)c4ccccc34)cc2)cc1	0.6	-33.4%	-2.0	0.0	7.3	-3.1	0.0	1.2
CCOC(=O)c1c(C)n(C(C)C)c2ccc(OC)cc12	0.7	x	-3.5	0.2	0.8	16.4	4.4	-1.4
CC(C)[N+](C)(CCC(C(N)=O)(c1ccccc1)c1ccccc1)C(C)C	-8.8	-10.4%	3.3	-0.9	x	4.0	-0.4	0.1&-2.2
N#Cc1ccccc1Cn1cc(C(=O)c2ccco2)c2ccccc21	x	1.4%	-1.9	0.6	3.1	0.9	3.2	x
c1ccc(CCN2CCC(N3CCN(c4ccccc4)CC3)CC2)cc1	-1.2	-3.7%	3.5	1.4	-3.3	42.5	-1.5	x
CCN(CC)c1ccc(/C=C/[N+](=O)[O-])cc1	0.6	2.5%	-1.7	2.1	-2.1	-6.3	-3.2	1.2
CNC(=O)Oc1ccc(N(C)C)cc1C(C)C	-3.8	2.8%	-4.0	-0.5	-4.0	0.8	3.2	0.2
Cc1cc(OCCN2CC2)c2ccccc2n1	-4.5	x	-1.4	0.0	9.6	8.1	3.4	x
COC(=O)C1=C(c2ccc(F)cc2OCc2ccccc2)C[C@@H]2CC[C@H]1N2C(=O)NCc1ccco1	-0.3	x	-5.4	-0.3	x	x	x	3.3
Clc1cccc(C2NCCc3[nH]cnc32)c1 (centres undefined)	4.4	5.7%	5.3	1.0	16.9	-7.3	3.1	x
CCOc1cc(CNCCc2c[nH]c3ccccc23)cc(Cl)c1OCC	6.3	-2.3%	-8.2	-1.7	-1.0	23.7	u	-35.4
CC(C)CCOP(N)(=O)Oc1ccccc1Cl (centres undefined)	-1.5	x	6.6	0.4	-30.0	-7.7	1.5	-3.1
CNC(=S)N1CCN(CCN=Cc2c(O)n(-c3ccc(C)cc3)c(=S)[nH]c2=O)CC1	x	-6.7%	-6.5	-0.1	-14.9	-9.4	-3.1	-3.9
CCOC(=O)C1CCCCC12C(C#N)=C(N)Oc1n[nH]c(C)c12 (centres undefined)	0.9	18.3%	5.2	0.4	42.5	-4.6	-1.7	x
CN1CCc2nc3sc(C(=O)NC(C)(C)C)c(N)c3cc2C1	2.7	20.8%	-11.1	-0.4	3.5	23.7	-2.8	x
COCCN(C(=O)COC(=O)Cc1ccccc1)c1c(N)n(Cc2ccccc2)c(=O)[nH]c1=O	-1.4	-1.9%	2.7	-0.7	0.1	-6.0	2.6	0.0
C1=C(c2ccccc2)CCNC1	-4.9	-0.9%	1.8	-0.2	-7.3	-10.4	2.1	-3.8
CCn1c(O)c(C=NCCc2c[nH]c3ccccc23)c(=O)[nH]c1=O	2.5	-4.3%	-5.7	-0.3	-3.2	-15.1	5.6	x
Cc1ccc2nc(N3CCC(C(=O)N4CCC5(CC4)OCCO5)CC3)sc2c1	2.5	16.3%	-1.6	0.5	-0.4	-0.5	5.2	x
C=CC1CN2CCC1CC2[C@@H](OC(=O)c1ccc(OC)cc1)c1ccnc2ccccc12 (some centres undefined)	11.5	x	32.4*	0.1	26.6	12.3	-2.5	10.4
CCc1ccc(N2C(=O)NC(=O)/C(=C/c3cccn3CCOc3ccc(C(C)CC)cc3)C2=O)cc1 (centres undefined)	11.0	x	2.1	-1.1	19.2	18.4	0.0	-0.4
Cc1cc(=O)n(-c2ccccc2)n1-c1ccccc1	-3.4	x	-2.0	-0.5	-4.2	-21.9	0.2	x
CCOP(=O)(OCC)C(NC(=O)c1ccc(C)cc1)C(Cl)(Cl)Cl (centres undefined)	1.7	-6.9%	4.7	-0.7	-0.7	2.1	-3.8	x
CC1=[N+]([O-])C2(N)CCc3nonc3C2(O)C1 (centres undefined)	0.0	5.9%	4.5	-0.3	1.0	1.0	4.8	x
CN1CC(C(=O)c2ccc(Cl)cc2)C(c2ccccc2F)C1 (centres undefined)	-8.8	3.2%	5.6	-0.2	-7.0	6.0	0.8	3.6
Going on with the list.
SMILES	Beta apoptosis	Vif TR-FRET	LANA-H2B inh	A1 inh	Calb FLC	T cruzi inh	RanGTP-Impb inh	AF4-AF9 inh
N#CC(C#N)=Cc1ccc(N2CCOCC2)cc1	3.3	29.5%	2.8	0.0	2.5	-4.8	u	-27.4
CCc1ccc2nc(N3CCC(C(=O)N4CCC5(CC4)OCCO5)CC3)sc2c1	2.3	-2.8%	2.5	1.0	-6.6	3.6	0.6	-1.7
CCCCN1C2CCCC1CC(NC(=O)c1ccc(OC)c(OC)c1)C2 (centres undefined)	1.6	19.1µM*	-1.2	0.3	-11.4	5.4	0.8	x
O=C(NCc1cccnc1)Nc1ccccc1Cl	-2.3	x	-4.1	-0.1	-4.9	-13.1	0.5	-1.1
CC(=O)OC1CC[C@]2(C#N)[C@H]3CC[C@]4(C)[C@H](C5C=CC(=O)O5)CCC4(O)C3CCC2(O)C1 (some centres undefined)	3.3	0.7%	-3.4	1.3	-8.2	-4.4	-3.3	-4.5
CCc1c(-c2ccccc2)nc2ccccc2c1C(=O)N1CCC2(CC1)OCCO2	-6.5	x	-4.6	-1.0	-3.9	3.4	2.9	-1.1
CCN1C[C@]2(COC)CC[C@H](OC)[C@@]34C1[C@]1(OCO[C@@]15C[C@H](OC)[C@H]1C[C@@H]3[C@@H]5[C@H]1OC)[C@@H](O)[C@H]24	-9.2	x	1.5	0.0	x	x	x	-3.4
c1ccc(-c2[nH]c(-c3ccccc3)[n+](CC3CO3)c2-c2ccccc2)cc1 (centres undefined)	-3.0	x	2.6	0.3	10.6	-5.9	u	x
CCCCCCOc1ccc(CN2CCN(CCO)CC2)cc1	3.9	-6.9%	-2.0	-0.2	-7.9	52.2	-1.6	x
COc1ccc(C2N(c3cc(C)on3)C(=O)C3CCCN32)cc1 (centres undefined)	-3.7	1.2%	-3.5	0.5	1.8	-17.5	0.6	-4.7
N#CC(C#N)=Cc1cccnc1	-5.8	-1.2%	0.8	-0.9	-0.1	-16.8	6.6	-0.9
C=CCn1c(O)c(C(CC)=Nc2ccc3c(c2)CCC3)c(=O)[nH]c1=O	2.9	30.9%	-3.2	-0.6	-18.5	4.8	-3.1	5.1
CCC(C)OC(=O)c1c(N)n(Cc2cccs2)c2nc3ccccc3nc12 (centres undefined)	-10.3	11.8%	4.9	-0.3	3.7	39.4	12.5	x
CCN(CC)c1ccc(/C=C2\C(=O)NC(=O)N(Cc3ccco3)C2=O)cc1	-1.7	x	-6.9	-0.3	-2.6	-11.2	2.6	x
O=C(CCC(=O)N1CCOc2ccc(Cl)cc21)N1CCC2(CC1)OCCO2	-0.5	x	0.8	2.0	-0.8	-5.2	0.3	-1.3
CC12CN3CC(C)(CN(C1)C3c1ccncc1)C2=O (centres undefined)	-5.8	4.0%	-1.9	0.2	-1.0	14.2	4.5	x
